Rango release inh = prevents RanGTP from dissociating the Rango-importin beta complex; Biochemical FRET Rango-importin beta, RanGTP-induced dissociation; AID 540253; Potency, µM (series often up to 46.1 µM), for the others: top-dose activity change, negative = inhibition; actives 0.071% (n = 340,000); active means falling FRET ratio curve, often poorly fitted, with flat reads before Ran was added; inconclusive means other falling curves, or compound fluorescence or quenching; inactive means flat or rising ratio curve;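 also: potency is read from the fitted curve at half-maximal effect; % of control where 0% means no effect; nearly all actives have a fitted effect of over 45% in size; -100% = wells without RanGTP and RCC1; the record marks most hits as doubtful in a second field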
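Quantitative HTS using a FRET biosensor: 0.1 uM Rango, 0.25 uM importin beta, 0.6 uM Ran, 2 mM GTP, 0.2 uM RCC1 final, PBS with DTT, Tween-20 and BSA. Post-read taken 45 min after Ran addition.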
miR-21 reporter = miR-21 reporter, rising signal; Potency, µM (series often up to 38.3 µM), for the others: at the highest dose reporter change, positive = more light; HeLa miR-21 FLuc reporter, luciferase, 48 h; 340,000 tested, under 10 active; AID 2288; active = well fitted rising curve with a large enough effect; inconclusive = small, poorly fitted or top-dose-only effect; inactive = no such curve, though single readings can be large or run the other way;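 also: % of control where 0% means no effect; miR-21 action dims this reporter so a rising signal means less miR-21 action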
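Compounds were titrated across several concentrations (up to approximately 40 uM) and incubated 48 hours with HeLa miR-21-FLuc reporter cells (miR-21 target sequence downstream of FLuc, endogenous miR-21). Readout was firefly luciferase luminescence after lytic detection reagent.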
GLA inh pH 4.5 = alpha-galactosidase A (human) inhibition, pH 4.5; AID 1467; 230,000 tested, under 10 active; activity change, negative = inhibition, % at 105 µM; P06280; purified enzyme, 4-MU-alpha-Gal fluorescence, pH 4.5; inconclusive = small, poorly fitted or top-dose-only inhibition, or a rising curve; inactive = flat fitted curve, though single readings scatter; no compound was filed as active;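 also: 0% = full activity with enzyme and -100% = basal without enzyme; dose as in the result columns while the protocol names 77 µM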
Target sequence (P06280 whole entry, looked up): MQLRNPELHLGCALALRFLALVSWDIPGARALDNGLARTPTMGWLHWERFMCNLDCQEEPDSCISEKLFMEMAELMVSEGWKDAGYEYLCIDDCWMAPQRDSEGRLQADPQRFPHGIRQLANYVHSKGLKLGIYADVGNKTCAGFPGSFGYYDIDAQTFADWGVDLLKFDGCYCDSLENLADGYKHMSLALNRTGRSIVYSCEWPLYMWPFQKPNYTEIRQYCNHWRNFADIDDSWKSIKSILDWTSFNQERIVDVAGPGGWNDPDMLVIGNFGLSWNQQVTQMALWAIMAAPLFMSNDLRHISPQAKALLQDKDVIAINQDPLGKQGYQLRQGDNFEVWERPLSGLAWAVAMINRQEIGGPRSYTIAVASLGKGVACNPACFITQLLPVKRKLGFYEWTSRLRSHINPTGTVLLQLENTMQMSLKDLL
Rango complex inh = Rango-importin beta binding inhibition; Rango CFP/YFP FRET sensor + importin beta, 45 min; Potency, µM (highest dose often 92.2 µM), inactives show at the top dose inhibition of complex formation; actives 0.031% (n = 340,000); AID 540263; active = rising FRET ratio curve, often small or poorly fitted; inconclusive = mostly compound fluorescence or quenching in the first reads; inactive = flat curves in all reads;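 also: potency is read from the fitted curve at half-maximal effect; 0% = DMSO wells and 100% = buffer wells lacking importin beta; nearly all actives have a fitted effect of over 15% in size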
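FRET biosensor Rango (snurportin 1 IBB between N-terminal EYFP and C-terminal Cerulean), 50 nM in PBS/1 mM DTT/0.02% Tween-20/0.1% BSA, preincubated 5 min RT with compound; 0.125 microM importin beta added, 45 min RT, CFP/YFP FRET ratio read.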
* marks the source's active call; other numbers are inactive results; ? = inconclusive; . = no result given; & = joins results of further samples; [ ] = another dose, or the depositor's remark. Not all compounds are listed; count on the stated rates, not on these rows.

SMILES	Rango release inh	miR-21 reporter	GLA inh pH 4.5	Rango complex inh
Cc1ccc(S(=O)(=O)NC2c3cccc4cccc(c34)C2Sc2ncccn2)cc1 (stereo unspecified)	2.3%	18.4%	-5.1	-0.1%
Nn1c(SCc2ccccn2)nncc1=O	-10.0%	-2.6%	0.2	0.4%
Cc1[nH]c(SCC(=O)c2c(N)n(C)c(=O)n(C)c2=O)nc1Cc1ccccc1	0.5%	.	.	-1.9%
CN(C)C(=S)c1ccc(N(C)C)cc1	-4.4%	-2.8%	0.5	-2.7%
O=C(Nc1ccc2ccccc2c1)Nc1ccc2snnc2c1	0.2%	?	-16.2	2.6%
Cc1ccc(C)c(N(C(=O)c2csnn2)C(C(=O)NC2CCCCC2)c2cccnc2)c1 (stereo unspecified)	-5.8%	0.3%	.	-2.3%
Cc1cc(Cl)c2oc(C(=O)NC3CCC(O)CC3)c(C)c2c1 (stereo unspecified)	0.9%	-55.6%	.	0.3%
CCN1CCN(C(=S)NCC2CCCO2)CC1 (stereo unspecified)	14.5%	3.1%	2.4	3.0%
COc1ccc(CNC(=O)C2CCC(CNc3c(N4CCC(C)CC4)c(=O)c3=O)CC2)cc1 (stereo unspecified)	17.8%	-3.2%	-3.5	-3.4%
c1ccc(-c2cnc(CSc3nnc4ccccn34)o2)cc1	3.2%	-33.7%	-10.1	6.7%
C=CCNC(=O)c1snnc1-c1ccccc1	-6.8%	-2.1%	-2.0	-3.0%
CC1(C)N=C(SCC(=O)Nc2ccc(Cl)cc2Cl)C(c2ccccc2)=N1	0.4%	10.4%	2.5	-4.3%
Cc1c(C(=O)Nc2ccc(Cl)cn2)oc2ccccc12	4.7%	-8.3%	-8.3	2.6%
CCn1cc(CNC(=O)CCc2nnc(CCC3CCCCC3)o2)cn1	12.4%	-0.6%	-19.4	-0.6%
Cc1nn(-c2ccc(N3CCOCC3)nn2)c(C)c1CCC(=O)NCc1ccccc1	-4.2%	-0.7%&0.5%	.	2.0%
COc1ccc(Cl)cc1C(=O)NC1=NCCS1	3.2%	-20.2%	.	2.2%
CCOc1ccc2c(c1)c(N=NC(=N)N)c(O)n2C	1.7%	11.9%	-10.4	-0.5%
CC1CCCN(C(=O)C(C)Nc2cc(Cl)ccc2N2CCOCC2)C1 (stereo unspecified)	9.2%	-2.6%	12.5	-4.8%
CC(C(=O)NCc1ccco1)n1ccc2cc(S(=O)(=O)N3CCCCC3)ccc21 (stereo unspecified)	3.1%	9.7%	.	0.4%
CC(=O)OCCSc1c(-c2ccccc2)c2cc(Cl)ccc2[nH]c1=O	1.3%	14.8%	-2.2	-3.0%
N#Cc1c(-n2ccnc2)cccc1-n1ccnc1	26.5%	-1.5%	-24.3	0.0%
Cn1cccc1/C=C(/C#N)c1ccc(F)cc1	-0.1%	-10.6%	5.6	-1.0%
Cc1ccc(/C=N/NC(=S)NC2CCCCC2)o1	5.1%	-65.3%	1.8	2.2%
Cc1ccc(OCc2ccc(C(=O)Nc3nc4ccccc4n3C)o2)c([N+](=O)[O-])c1	8.1%	-15.9%	2.1	3.2%
N#Cc1cc(-c2ccccc2)nnc1Sc1ccc(Cl)cc1	-4.9%	-2.1%	3.0	-4.2%
O=C(O)c1cc2nc(-c3ccccc3)cc(C(F)(F)F)n2n1	-1.5%	-2.4%	-0.2	-2.9%
O=C(CN1C(=O)/C(=C\c2cccc(Br)c2)Oc2ccccc21)NCCCN1CCOCC1	0.9%	-4.5%	.	-0.3%
O=C(NCCCn1ccnc1)C(=O)NCC1OCCN1S(=O)(=O)c1ccc(Br)cc1 (stereo unspecified)	17.0%	4.6%	1.1	-0.6%
CC1(C)OC2OC(COC(=O)c3ccc([N+](=O)[O-])cc3)C3OC(C)(C)OC3C2O1 (stereo unspecified)	22.3%	-4.7%	4.5	-0.9%
CCCCC(=O)Nc1nnc(SCC(=O)NC2CC2)s1	6.3%	-2.5%	.	?
CC(C)(C)C(=O)c1sc2nc(-c3cccs3)cc(C(F)(F)F)c2c1N	?	2.6%	5.3	?
N#C/C(=C(/O)c1ccc(F)cc1)c1nc2ccccc2s1	6.4%	-28.9%	-10.8	-1.2%
COc1cccc(C(=O)N2CCN(CCCc3ccccc3)CC2)c1OC	-10.1%	-2.7%	1.4	8.2%
CCC(NC(=S)NCc1ccc(F)cc1)c1ccccc1 (stereo unspecified)	1.2%	10.7%	.	-3.4%
C[C@@H](OC(=O)c1[nH]cnc1C(=O)N1CCc2ccccc2C1)c1ccccc1	5.9%	.	.	3.3%
COc1ccc(NS(=O)(=O)c2cc(NC(=O)c3cnc(C)cn3)ccc2N2CCCC2)cc1	-5.6%	17.0%	-8.6	-0.1%
C#CCOCCOCCOCCNc1nc(N2CCN(C(=O)[C@H]([C@@H](C)CC)n3cc(CCCCN)nn3)CC2)nc(N2CCN(C(=O)[C@H](CCCCN)n3cc(CCCC)nn3)CC2)n1	7.7%	.	.	2.6%
COCCNc1ccc(S(=O)(=O)N2CCCC2)cn1	-6.1%	1.4%	-11.2	-0.6%
Cc1ccc(C(=O)CCS(=O)(=O)c2ccc(F)cc2)cc1	-7.3%	?	.	3.6%
CCOC(=O)N1C=CC=C[C@@H]2[C@@H](N3C(=O)c4ccccc4C3=O)C(=O)N21	-8.7%	1.6%	2.8	0.0%
Cc1ccc(C)c(C(=O)COC(=O)CN2C(=O)C3C4C=CC(C4)C3C2=O)c1 (stereo unspecified)	-16.8%	-0.6%	.	-0.1%
Cc1snc(SCc2ccc(F)cc2)c1C#N	13.6%	-12.0%	.	3.0%
Cc1cc(C)nc(SCC(=O)Nc2cccc(S(=O)(=O)N(C)C)c2)n1	-3.2%	-0.9%	3.3	2.2%
O=C(CSc1ncnc2c1oc1ccccc12)Nc1ccccc1F	14.3%	-0.5%	0.1	-2.2%
Cc1cc(Br)ccc1S(=O)(=O)n1ccnc1C	10.0%	-4.6%	4.8	-0.6%
COc1ccc(C2C(C(=O)c3ccccc3)=C(C)Nc3nc4ccccc4n32)cc1OC (stereo unspecified)	-4.3%	-16.1%	2.4	-5.6%
O=C(Nc1cccnc1)C(Cc1ccccc1)n1cccc1 (stereo unspecified)	-7.7%	-0.7%	3.8	-0.5%
CCn1c(SC(C)C)nnc1-c1c[nH]c2ccccc12	0.6%	-20.5%	-2.9	0.7%
COc1ccccc1/C=C\C(=O)NCC(=O)N/N=C/c1cccc(OC)c1O	-15.6%	27.8%	.	2.3%
O=c1c2ccccc2c(=O)n(-c2ccccc2)n1-c1ccccc1	6.5%	.	.	0.7%
Cc1ccccc1CN(C)CC(=O)Nc1cccc(S(=O)(=O)N(C)c2ccccc2)c1	2.6%	-0.9%	?	-1.4%
O=C(Nc1ccccc1-c1nc2ccccc2s1)c1ccc(Br)o1	12.6%	-0.4%	3.6	0.2%
O=C(Cc1cnc2ncnn2c1)N1CCc2c([nH]c3ccccc23)C1c1ccccc1F (stereo unspecified)	8.7%	-0.2%	-27.8	0.1%
Cn1nc(C(=O)Nc2ccccc2N2CCCC2)c2ccccc2c1=O	-22.4%	8.6%	.	3.9%
c1ccc2c(c1)CCCc1cc(NCCN3CCOCC3)nnc1-2	0.4%	.	2.6	9.6%
Cc1ccc(NC(=O)COc2ccc(/C=C3/SC(=Nc4ccccc4)N(Cc4cccnc4)C3=O)cc2)cc1	-9.9%	0.3%	3.8	1.3%

Shown as labelled records: 4 of the compounds above.
> O=C(Nc1ccccc1-c1nc2ccccc2s1)c1ccc(Br)o1
  Rango release inh: 12.6%; miR-21 reporter: -0.4%; GLA inh pH 4.5: 3.6; Rango complex inh: 0.2%

> O=C(Cc1cnc2ncnn2c1)N1CCc2c([nH]c3ccccc23)C1c1ccccc1F (stereo unspecified)
  Rango release inh: 8.7%; miR-21 reporter: -0.2%; GLA inh pH 4.5: -27.8; Rango complex inh: 0.1%

> Cn1nc(C(=O)Nc2ccccc2N2CCCC2)c2ccccc2c1=O
  Rango release inh: -22.4%; miR-21 reporter: 8.6%; GLA inh pH 4.5: .; Rango complex inh: 3.9%

> c1ccc2c(c1)CCCc1cc(NCCN3CCOCC3)nnc1-2
  Rango release inh: 0.4%; miR-21 reporter: .; GLA inh pH 4.5: 2.6; Rango complex inh: 9.6%

Next structures follow.
SMILES	Rango release inh	miR-21 reporter	GLA inh pH 4.5	Rango complex inh
CCC(C)Sc1ccc([C@@H]2[C@@H]3C(=O)N(CC)C(=O)[C@@H]3[C@]3(C(=O)OC)CCCCN23)cc1 (stereo partly specified)	5.1%	.	.	-0.8%
CCOC(=O)c1c(C)[nH]c(C)c1C(=O)COC(=O)COc1ccc(Cl)c(C)c1	4.8%	.	.	-1.2%
CCS(=O)(=O)N1CCN(C(=O)CCC2CCCC2)CC1	-3.4%	-4.4%	-4.2	1.4%
CCO[C@H]1OC(C(=O)NC2CC2)=C[C@@H](c2ccc(C(F)(F)F)cc2)[C@@H]1CCCO	2.6%	0.2%	2.7	3.4%
Cc1cc(C)nc(Nc2ncc(O)n2-c2ccc(C)c(C)c2)n1	11.8%	-1.6%	10.5	0.2%
COc1ccc(S(=O)(=O)NCC(=O)Nc2ccc3c(c2)OCCO3)cc1OC	4.1%	1.2%	.	3.9%
CC(C)N1C(=O)CC2(CC[N+](C)(CCOC(=O)C(c3ccccc3)c3ccccc3)CC2)C1=O (stereo unspecified)	-18.7%	-1.5%	-2.6	4.7%
CCN1C(=O)CCC(C(=O)O)C1c1ccc(OC)cc1 (stereo unspecified)	0.4%	-2.2%	-1.2	0.3%
C/C(=N\NS(=O)(=O)c1ccc(C)cc1)c1cc2ccccc2oc1=O	-5.7%	-27.3%	0.2[21.1 µM]	0.2%
CCCSC1=C(C#N)C(c2ccc(O)c(OC)c2)CC(=O)N1 (stereo unspecified)	5.2%	-1.9%	-4.4	-3.0%
O=C(CNC(=O)c1ccc(Br)cc1)OCC(=O)c1ccccc1	-6.2%	-3.2%	.	5.7%
COC(Cc1ccccc1N1CCCC1=O)OC	-4.7%	0.1%	.	3.4%
Cc1ccccc1Nc1nc(N)nc(COC(=O)c2ccccc2)n1	9.0%	-77.6%	-7.6	1.0%
Nc1cc(=O)[nH]c(SCC(=O)Nc2ccc(F)c(Cl)c2)n1	8.6%	-4.3%	-4.3	-5.0%
Cc1cccc2cc(COC(=O)c3cccc([N+](=O)[O-])c3)c(=O)[nH]c12	7.8%	2.6%	-4.0	3.2%
COc1ccc(S(=O)(=O)N(C)C[C@@H]2Oc3c(NS(C)(=O)=O)cccc3C(=O)N([C@@H](C)CO)C[C@H]2C)cc1	11.4%	.	.	16.5%
c1ccc2c(C[n+]3csc4ccccc43)cccc2c1	2.6%	-10.9%	-4.5	2.1%
CCOC(=O)c1nn(-c2ccccc2)c(=O)cc1SC(C)C	17.2%	0.6%	9.7	3.6%
CCOc1cc(C(=O)N2CCC(CC3CC(c4ccc(Cl)cc4)=NO3)(C(=O)NCC3CCCCC3)CC2)cc(OCC)c1OCC (stereo unspecified)	-1.8%	1.2%	.	0.8%
Cc1ccc(S(=O)(=O)CCC(=O)OCC(=O)c2cc(C)ccc2C)cc1	12.4%	.	.	0.3%
COc1ccc(N(CC(=O)NCc2cccnc2)S(=O)(=O)c2ccccc2[N+](=O)[O-])c(OC)c1	-2.0%	-2.3%	-17.7	1.8%
CNNC(=S)Nc1cccc(SC)c1	0.5%	-3.8%	-1.3	0.4%
COc1ccccc1CCC(=O)Nc1cccc(S(=O)(=O)N2CCCC2)c1	11.5%	6.4%	.	1.2%

Screening results (PubChem BioAssay)
